TAR Tat displ = HIV-1 TAR-Tat binding disruption; HIV-1 TAR RNA, Tat peptide displacement FRET; active compounds read high; z-score (no concentration beside the values); hit rate 0.6% among 100,000; AID 1259389;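 also: score is relative to mean and SD of negative controls; some compounds called inactive have numbers as strong as hits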
CDC25B-CDK2 inh = human CDC25B-CDK2/CyclinA binding inhibition; P30305+P24941; HTRF CDC25B-CDK2/CyclinA binding, anti-His/anti-Flag; active compounds read high; z-score (no concentration beside the values); hit rate 0.72% among 94,000;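 also: score is relative to mean and SD of negative controls; strong numbers were not always called active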
Numbers without * were called inactive; nt = no result given.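 The calls were made as follows: active = z-score from 3 up in half or more of its runs; inactive = the rest.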

Under each structure: TAR Tat displ, CDC25B-CDK2 inh
> CC(NC(=O)c1ccccc1)c1nc(-c2ccc3c(c2)nnn3C2CCCC2)no1 (configuration not stated)
→ 2.3, nt
> CCOC(=O)c1nn(-c2ccccc2)c(=O)cc1N1CCCc2ccccc21
→ 0.99, nt
> COc1ccc(-c2noc(N3CC=C(c4ccccc4)CC3)n2)cc1OC
→ -0.49, nt
> NC(=O)C1CCN(C(=O)COCc2cc(-c3cccs3)on2)CC1
→ -1.2, nt
> Cc1nn(CC(=O)NCc2cccnc2)c(=O)c2cc3occc3n12
→ 0.54, 1
> COc1ccccc1-n1cc[nH]c(=S)c1=O
→ 1.1, 0.92
> CCn1c(C(=O)N2CCC(C(=O)NCCC(C)C)CC2)cc2sccc21
→ -0.44, -0.58
> O=C1c2cccnc2C(=O)N1Cc1ccc(S(=O)(=O)Nc2cc(F)ccc2F)s1
→ -0.17, nt
> COc1ccccc1-c1noc(CSc2nnc(-c3ccc(Cl)cc3)n2C)n1
→ -1.6, -1.6
> CN(C)CCNC(=O)c1[nH]nc2c1COc1ccccc1-2
→ 0.1, nt
> O=c1[nH]ncn2c1c(-n1cccc1)c1c3c(sc12)CCCC3
→ 1.3, 5
> COc1ccccc1C1CCN(S(=O)(=O)c2cc(Cl)cc(Cl)c2)CC1
→ nt, 1.7
> Cc1[nH]c(=O)[nH]c(=O)c1C1N2CC3(C)CN1CC(c1ccccc1)(C2)C3=O (configuration not stated)
→ 1.5, -1.3
> Cc1cc(C)nc(NS(=O)(=O)c2ccc(NC(=O)c3cccs3)cc2)n1
→ nt, -0.4
> CCc1nnc2c3ccccc3nc(Nc3ccc(C)cc3)n12
→ 2, -1.4
> CC1CCc2c(sc3nnn(CC(=O)N4CCOCC4)c(=O)c23)C1 (configuration not stated)
→ 0.65, 0.1
> O=C(O)c1ccc(NC2(c3ccccc3)C(=O)c3ccccc3C2=O)cc1
→ 1.5, nt
> c1ccc2c(c1)Nc1nc3ccccc3nc1N2
→ nt, -1.3
> Cc1cc(C(=O)C(=O)Nc2nncs2)c(C)n1-c1ccc(F)cc1
→ 2, -2.3
> Cc1cc(C)nc(N2CCC(NC(=O)Nc3ccc(Br)cc3)CC2)n1
→ 0.07, -0.33
> CCc1nn(CC(=O)NCCN2CCN(C)CC2)c(=O)c2cc3sccc3n12
→ 2.5, -0.44
> Cc1cc(C)c2c(=O)c3c(oc2c1)C(=O)N(Cc1ccc(F)cc1)C3c1cccc(O)c1 (configuration not stated)
→ 2.6, -0.43
> CCOC(=O)c1oc2ccccc2c1CO
→ 2.1, -2.8
> CCOc1ccc(-n2nnnc2CNC(=O)Nc2ccc(OC)cc2OC)cc1
→ 0.97, nt
> CCC12CN3CC(CC)(CN(C1)C3c1ccc(OC(C)C)cc1)C2O (configuration not stated)
→ 1.1, -1
> CC(Cc1ccco1)NS(=O)(=O)c1ccc(-c2ccc(=O)[nH]n2)s1 (configuration not stated)
→ 0.03, nt
> CC1CCCCN1CCNS(=O)(=O)c1ccc2c(c1)CC(C)N2C(=O)C1CC1 (configuration not stated)
→ 0.8, nt
> O=C(c1ccc2c(c1)OCO2)N1CCc2[nH]nc(-c3ccccc3)c2C1
→ 1.6, nt
> Cc1onc(C(=O)Nc2sc3c(c2C#N)CCCC3)c1[N+](=O)[O-]
→ -1.6, 1.1
> O=C(NC1CC1)C1CCN(c2nc3ccccc3n3cccc23)CC1
→ 0.44, nt

Next part; the last three above are carried over.
Under each structure: TAR Tat displ, CDC25B-CDK2 inh
> O=C(c1ccc2c(c1)OCO2)N1CCc2[nH]nc(-c3ccccc3)c2C1
→ 1.6, nt
> Cc1onc(C(=O)Nc2sc3c(c2C#N)CCCC3)c1[N+](=O)[O-]
→ -1.6, 1.1
> O=C(NC1CC1)C1CCN(c2nc3ccccc3n3cccc23)CC1
→ 0.44, nt
> CCOc1ccc(-c2cc(-c3nc(-c4ccncc4)no3)[nH]n2)cc1
→ 0.33, nt
> COc1ccc(OC)c(NS(=O)(=O)c2ccc(-c3ccc(=O)[nH]n3)o2)c1
→ 2, nt
> CCc1nc(-c2cc3ccccc3[nH]c2=O)no1
→ -0.49, -0.22
> O=C(NCc1ccco1)Nc1c[nH]c2ccccc2c1=O
→ 0.37, -0.21
> COc1cc(OC)cc(-c2cc3nc(C)c(CCC(=O)NC4CCCC4)c(C)n3n2)c1
→ nt, -0.61
> Cc1[nH]c2ccc(C(=O)O)cc2c1C
→ 0.96, -1.2
> COc1ccc(Br)cc1C1C(C(=O)OC2CCCC2)=C(C)NC2=C1C(=O)CC(C)(C)C2 (configuration not stated)
→ 0.93, -0.2
> CCC(=O)Oc1ccc2nc(-c3ccc(C)c(C)c3)oc(=O)c2c1
→ 1.6, -2
> Clc1cccc(-c2nn3c(C4COc5ccccc5O4)nnc3s2)c1 (configuration not stated)
→ 1.8, -0.99
> CC1(C)CC(=O)C2=C(C1)OC(N)=C(C#N)C2c1ccc(Br)cc1 (configuration not stated)
→ nt, 0.9
> O=C(NCCO)c1nn(-c2ccc(F)cc2)nc1CO
→ 4.4, -0.8
> Cc1noc(-c2ccc(C)c(S(=O)(=O)NCc3ccco3)c2)n1
→ 1.6, nt
> CCN1C(=O)C2(/C(=C(/O)c3ccc(OC)c(C)c3)C(=O)C(=O)N2CC2CCCO2)c2ccccc21 (configuration not stated)
→ -0.3, -0.58
> COc1ccc(C)cc1S(=O)(=O)Nc1ccc(Cl)c(N2CCCS2(=O)=O)c1
→ 0.56, nt
> COCCNc1sc(S(C)(=O)=O)nc1S(=O)(=O)c1ccc(C)cc1
→ 0.01, 0.03
> CC(=O)Oc1ccc2c(c1)oc(=O)c1c3cc(OC(C)=O)c(OC(C)=O)cc3oc21
→ 3.1, -1.6
> O=C(O)CSc1nnc(COc2cccc(Cl)c2)n1-c1ccccc1
→ 0.08, -1.3
> COc1ccc(C2C(C(=O)OC(C)C)=C(C)N=C3SCCC(=O)N32)cc1OC (configuration not stated)
→ 2.3, -3.9
> Cn1c(=O)n(Cc2ccccc2)c(=O)c2c1nc1n2CCS1
→ -1.4, -0.92
> CCOC(=O)C1=C(C)NC2=C(C(=O)C(C(=O)OC)C(C)C2)C1c1ccc(OC)cc1OC (configuration not stated)
→ 1.1, -1.2
> COc1ccc2c(c1)CC(NC(=O)NCc1ccc(SC)cc1)CO2 (configuration not stated)
→ 0.78, nt
> CCc1nc2nc(C)cc(N3CCN(c4ccc(C)cc4C)CC3)n2n1
→ 1.5, nt
> C(=N\Nc1ccccc1)/c1cccs1
→ nt, -0.59
> CC1(C)CC(=O)C(CCC#N)C(=O)C1
→ nt, -0.9
> CC(=O)Nc1ccc(N2C(=O)CSC2c2ccc(C(C)(C)C)cc2)cc1 (configuration not stated)
→ 0.55, nt
> CCCc1cc2c(=O)c(-c3ccc4c(c3)OCO4)c(CC)oc2cc1O
→ nt, 0.43
> COc1ccc(CN[C@H]2CS(=O)(=O)C[C@@H]2S(=O)(=O)c2ccc(F)cc2)cc1OC
→ 2, -1.5
> Cc1nn(CC(=O)N2CCC(N3CCCCC3)CC2)c(=O)c2cccn12
→ 0.72, -2.2
> CCOC(=O)C1=C(C)Nc2ncnn2C1c1cccc(O)c1 (configuration not stated)
→ 0.07, -0.67
> CC(C)c1ccc(N2C(=O)NC3CC2(C)Oc2ccc(Br)cc23)cc1 (configuration not stated)
→ nt, -2.7

Under each structure: TAR Tat displ, CDC25B-CDK2 inh
> CN1C(=O)c2cc(C(=O)N3CCC(C(N)=O)CC3)nn2CC1(C)C(=O)NC1CCCCC1 (configuration not stated)
→ -1.1, nt
> Cc1cc(NS(=O)(=O)c2cc3c4c(c2)CC(=O)N4CCC3)ccc1Br
→ 0.25, nt
> CCOC(=O)CS(=O)(=O)c1nc2ccccc2nc1Cl
→ 1.6, -2.6
> CC1=C(C(=O)NCC2CCCO2)C2(CCN(S(C)(=O)=O)CC2)OC1=O (configuration not stated)
→ -0.09, nt
> COC(=O)c1ncn2c1C(=O)OC(COc1ccccc1)C2 (configuration not stated)
→ nt, -3.1
> CN(CC(=O)NCc1cccs1)S(=O)(=O)c1ccc2c(c1)n(C)c(=O)c(=O)n2C
→ -2.1, -1.2
> Cn1c(=O)c2c(-c3ccc(Cl)cc3)n(CC3CCCO3)cc2n(C)c1=O (configuration not stated)
→ 0.52, -0.43
> CCCOc1ccc(Oc2nc(NC(C)(C)C)nc(N3CCOCC3)n2)nn1
→ nt, -0.76
> O=C(NCc1ccc2c(c1)OCO2)c1nnc(Cc2ccc(F)cc2Cl)o1
→ -0.11, -1.7
> O=C(Nc1ccc(F)c(Cl)c1)N1CC2CCCN2c2ccccc21 (configuration not stated)
→ -1.7, nt
> Cc1cc(C)c(S(=O)(=O)Nc2ccc3c(c2)CC(=O)N3)cc1C
→ 0.14, nt
> CC(=O)Nc1ccc(Br)cc1C(=O)c1nnc(N)s1
→ 1.9, -1.3
> COc1cc(C2C3=C(CCCC3=O)NC3=C2C(=O)CCC3)ccc1OCc1ccccc1F
→ 0.58, -1.4
> Cc1cc2n(n1)CCC(=O)N2CCCC(=O)N1CCCC1
→ 1.1, nt
> Cc1ccc(NS(=O)(=O)c2ccc3[nH]c(=O)oc3c2)c(C)c1
→ 0.26, nt
> CCCSc1nc2c(c(=O)[nH]1)C(c1cccs1)C(C(=O)OC)=C(C)N2 (configuration not stated)
→ 0.81, -2.1
> CC(C)(C)c1nnc(Nc2ccc3c(c2)OCCO3)[nH]c1=O
→ nt, -0.58
> O=C(CSc1nccn1Cc1ccc2c(c1)OCO2)NC1CCCC1
→ 1.2, nt
> CN(C)/C=C(\C#N)c1nnc(-c2ccccn2)n1C
→ nt, 0.33
> CC(C)Cc1nn2c(=O)cc(CSc3nnc(NC(=O)C(C)C)s3)nc2s1
→ 1.4, nt
> O=C(Nc1sc2c(c1C(=O)N1CCOCC1)CCCCC2)c1cccs1
→ nt, 0.39
> CCCN1CCN(c2ncc3c(n2)CCN(Cc2ccc4c(c2)OCCO4)C3)CC1
→ 2.2, nt
> COc1cc(CNCCSc2nnnn2C)ccc1OCc1cccs1
→ 0.32, -2.1
> CC(C)c1ccc(S(=O)(=O)c2nnn3c2nc(N2CCCC2)c2sccc23)cc1
→ -0.04, nt
> Cc1ccn2c(=O)cc(COc3ccccc3NS(=O)(=O)c3ccc(Cl)cc3)nc2c1
→ 0.72, nt
> COC(=O)c1cc(S(=O)(=O)N2CCn3c2nc2ccccc23)c[nH]1
→ 1.1, nt
> Cc1cc(=O)[nH]c(SCC(N)=O)n1
→ -0.27, -1.4
> Cc1cc(-c2ccc(S(=O)(=O)NC3CCCCC3)s2)on1
→ -1, nt
> O=C(Cn1ncc2c([nH]c3ccccc32)c1=O)NC1CCCCC1
→ 0.45, nt
> O=C(NCC1CCCO1)C1CCN(C(=O)c2cc3sccc3n2Cc2ccc(Cl)cc2)CC1 (configuration not stated)
→ nt, -0.41

Under each structure: TAR Tat displ, CDC25B-CDK2 inh
> Cc1ccc(-c2nnc3n2N=C(c2ccccc2O)CS3)cc1
→ 0.5, -0.19
> Cc1occc1C(=O)Nc1nn[nH]n1
→ 0.99, -0.79
> CN(CCNc1ncnc2onc(-c3cc(F)cc(F)c3)c12)C1CCCCC1
→ 0.41, nt
> C=C(C)c1cccc(C(C)(C)NC(=O)N2CCc3ccccc3C2)c1
→ 2.2, -0.66
> COc1ccc(Nc2nc(N3CCCC(C)C3)nc(N)c2[N+](=O)[O-])cc1 (configuration not stated)
→ 0.75, nt
> O=C(CSc1nnc2nc[nH]n12)Nc1nccs1
→ 0.7, -1.1
> CCC(O)c1nc2ccccc2n1CCCCOc1ccccc1 (configuration not stated)
→ -0.66, -1.1
> CC1CCCC(NC(=O)C2(C)Cn3c(cc4sccc43)C(=O)N2Cc2ccc3c(c2)OCO3)C1C (configuration not stated)
→ 1, -4.4
> COc1ccc(C2Nn3c(C)nnc3SC2C(=O)N2CCCC2)cc1Br (configuration not stated)
→ -1.3, -2.7
> c1ccc(CN2C3=NCCCN3c3ccccc32)cc1
→ 1.1, -0.26
> COc1ccc(-n2nc(C)c3c(C(F)(F)F)cc(-c4ccccn4)nc32)cc1
→ 0.76, -2.1
> CC(C)CCn1c(-c2nonc2N)nc2ccccc21
→ 0.42, -1.9
> O=C(Nc1nnc(N2CCCC2)s1)Nc1ccccc1Br
→ 2.5, 0.89
> O=C1c2ccccc2C(=O)N1CC12CC3CC(CC(Br)(C3)C1)C2
→ nt, -1.6
> O=C(Nc1ccc2c(c1)OCCO2)c1cnc(N2CCCC2)nc1
→ 1.2, nt
> Cn1cccc1-c1cc2n(n1)CCCN2C(=O)CCC(=O)NCCCN1CCCC1=O
→ 1.2, nt
> COc1cc(C(=O)Oc2c(CN3CCOCC3)cc(Cl)c3cccnc23)cc(OC)c1OC
→ nt, -3
> Cc1ccc(C)c(N2CCN(c3c(-c4ccc(C)c(C)c4)c(=O)c3=O)CC2)c1
→ 13*, nt
> O=C(O)c1ccc(Cn2nc(N3CCN(c4ccccc4)CC3)ccc2=O)o1
→ 0.9, -0.29
> COCCCNc1nc2c(S(=O)(=O)c3ccccc3)nnn2c2ccccc12
→ 1.1, -1.9
> CCOC(=O)c1nn(-c2ccccc2)c(N)c1C#N
→ 0.41, -0.83
> COC(=O)C1=C(C)Nc2nc3ccccc3n2C1c1cccc(Cl)c1 (configuration not stated)
→ 1.1, -3
> CN1CCc2c(sc3c2C(=O)NC(c2ccc(F)cc2)N3)C1 (configuration not stated)
→ -0.94, -0.98
> COCCCNC(=O)Cn1cnc2onc(C)c2c1=O
→ 0.9, nt
> Cc1c(Cl)cccc1-n1nnc(-c2nc(-c3ccc4c(c3)OCO4)no2)c1C
→ 0.33, nt
> Fc1ccc(-c2cc(-c3nc(-c4ccccn4)no3)[nH]n2)cc1
→ -0.63, nt
> CCCNS(=O)(=O)c1cc2c3c(c1)CCC(=O)N3CCC2
→ 1.6, nt
> O=C(O)c1ccc2c(c1)N(Cc1ccccc1)C(=O)CO2
→ 0.65, nt

A second format for some results above.
Compound | TAR Tat displ | CDC25B-CDK2 inh
Cn1cccc1-c1cc2n(n1)CCCN2C(=O)CCC(=O)NCCCN1CCCC1=O | 1.2 | nt
O=C(Nc1nnc(N2CCCC2)s1)Nc1ccccc1Br | 2.5 | 0.89
O=C(O)c1ccc(Cn2nc(N3CCN(c4ccccc4)CC3)ccc2=O)o1 | 0.9 | -0.29

Compound activity as filed in PubChem BioAssay.
